High-throughput results from PubChem BioAssay.
VDR inh – vitamin D3 receptor (human) inhibition | VDR-SRC2-3 peptide fluorescence polarization, 2 h | hit rate 0.93% among 400,000 | Potency, µM, inactives show max response, negative = inhibition, usual class: inhibitors | P11473; active means well fitted inhibition curve with a large enough effect; inconclusive means small, poorly fitted or top-dose-only effect, or another doubt; inactive means no such curve, though single readings can be large or run the other way; further: series mostly up to about 120 µM
Target sequence (P11473 whole entry, looked up): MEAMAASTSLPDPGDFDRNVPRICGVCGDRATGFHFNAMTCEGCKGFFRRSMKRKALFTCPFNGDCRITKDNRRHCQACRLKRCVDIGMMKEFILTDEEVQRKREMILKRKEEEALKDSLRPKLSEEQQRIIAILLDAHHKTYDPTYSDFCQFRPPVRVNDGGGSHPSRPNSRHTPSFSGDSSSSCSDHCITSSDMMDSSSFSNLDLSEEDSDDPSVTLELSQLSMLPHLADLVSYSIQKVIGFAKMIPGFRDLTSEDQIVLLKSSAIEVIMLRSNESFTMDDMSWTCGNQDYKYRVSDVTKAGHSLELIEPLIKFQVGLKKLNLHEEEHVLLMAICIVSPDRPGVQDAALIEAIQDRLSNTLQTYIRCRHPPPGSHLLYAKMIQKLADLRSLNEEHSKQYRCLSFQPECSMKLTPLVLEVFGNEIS
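Compounds are added to VDR with labelled SRC2-3 coactivator peptide and held 2 h at room temperature. Inhibition of the VDR–peptide interaction is then read as a change in fluorescence polarization.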
The depositor's hits bear a star; ? = inconclusive; [ ] = another dose, or the depositor's remark. On the % scale 0 is the no-effect control and ±100 the full control effect; potency means the concentration at half of the fitted maximal effect. These rows are one share of the data (hit frequency here may not be typical).

structure	VDR inh
O=C(NCCc1nc2ccccc2n1Cc1ccccc1)c1ccco1	22.7%
O=C(Oc1ccc(-c2cnc3ccccc3n2)cc1)c1ccc(Cl)c([N+](=O)[O-])c1	2.2%
Cc1cccc(C(=O)NNC(=O)CSc2nnc(C3CC3)n2C)c1	-10.5%
CCCCC(=O)Nc1nnc(S(=O)(=O)N(C)Cc2ccc(Cl)cc2)s1	1.1%
O=C(CNC(=O)c1ccccc1F)NNC(=O)c1ccccc1O	103.0%[activator]
CCOC(=O)c1ccc(S(=O)(=O)N2CCN(CCC#N)CC2)cc1	-2.9%
CN(C)C(=O)CSc1nnc(NC(=O)CCc2ccccc2)s1	12.6%
CCOC(=O)CNC(=O)CSc1nnc(-c2ccco2)n1N	14.5%
S=c1cn[nH]c2ccccc12	-7.6%
Cc1ccc(OCC(=O)N/N=C/c2ccc([N+](=O)[O-])o2)cc1	4.9%
Cc1c(C)c2ccc(OC(C)C(=O)N3CC[C@@]4(O)CCCC[C@H]4C3)c(C)c2oc1=O (some centres not stated)	-16.6%
CC(=O)N(Cc1cccnc1)c1nc2c(C)cccc2s1	2.0%
O=C(Nc1ccc(F)c(F)c1)C(c1ccccc1)N1Cc2ccccc2C1=O (configuration not stated)	19.0%
O=C(c1cc(Cl)ccc1[N+](=O)[O-])N1CCc2ccccc2C1	-18.7%
CCc1ccc(OCC(=O)N(Cc2ccccc2)C2CCS(=O)(=O)C2)cc1 (configuration not stated)	6.2%
CCOC(=O)CC1COCCN1Cc1cn[nH]c1-c1ccc2c(c1)OCO2 (configuration not stated)	1.0%
Cc1ccc(N2CN=C3SCC(=O)N3C2)cc1C	12.5%
O=C(CN1CCN(c2ccccn2)CC1)Nc1ccc([N+](=O)[O-])cc1C(=O)Nc1ccccc1F	-7.0%
CCCC(C)NC(=O)COc1ccc(Sc2ccc(OCC(=O)NC(C)CCC)cc2)cc1 (configuration not stated)	-15.4%
CCOC(=O)C1CCCN(C(=O)CCNS(=O)(=O)c2cc(Br)cnc2N)C1 (configuration not stated)	1.3%
CCCSc1sc(C(=O)OC)c(-c2cccs2)c1C#N	8.0%
Cc1cccc(NC(=O)N(C)Cc2cccs2)c1	18.7%
CCCC(=O)NCC(c1cccs1)S(=O)(=O)c1ccc(Cl)cc1 (configuration not stated)	14.5%
O=C1C=C(c2ccc(-c3ccccc3)c(F)c2)C[C@@H](c2ccc3c(c2)OCO3)C1	13.0%

Given with each value named: part of the list above.
CCCC(C)NC(=O)COc1ccc(Sc2ccc(OCC(=O)NC(C)CCC)cc2)cc1 (configuration not stated)
  VDR inh: -15.4%
Cc1cccc(NC(=O)N(C)Cc2cccs2)c1
  VDR inh: 18.7%
CCCSc1sc(C(=O)OC)c(-c2cccs2)c1C#N
  VDR inh: 8.0%

Going on with the list:
structure	VDR inh
COC(=O)C1=C(C(=O)OC)[N+]2=C3N(C(=O)NC2(C)C)[C@H](CO)C[C@@]32c3ccccc3N(Cc3ccccc3)[C@@H]12	1.9%
O=C(CSc1nnc(-c2ccco2)n1Cc1ccccc1)c1ccccc1	-21.2%
CCOC(=O)c1sc(NC(=S)NC(=O)c2ccco2)nc1C	-1.8%
COCCCNCCOCCSc1ccc(Cl)cc1	-4.3%
COc1ccc(CNC(=O)/C(C#N)=C/c2cccc(OC)c2OC)cc1	?
CCN(CC)c1ccc(NC(=O)c2sc3ccccc3c2Cl)cc1	-18.1%
C[C@@]12C(=O)Nc3ccc(Br)cc3C(=O)N1[C@H]1c3cc(Br)ccc3OC[C@@H]1[C@@H]2c1ccccc1	-19.9%
O=C(OCC(=O)c1ccc[nH]1)c1ccc(Cl)c(Cl)c1	0.2%
CC(C)(C)NC(=O)C(c1cccnc1)N(C(=O)c1csnn1)c1ccccc1 (configuration not stated)	-6.4%
COc1nc(Oc2ccc(C(=O)O)cc2)nc(Oc2ccc(C(=O)O)cc2)n1	-4.2%
COC(=O)c1ccc(NC(=O)CSc2nnc(CNc3ccc(F)cc3)n2C)cc1	-20.5%
CCC(=O)N1CCN(c2nc3ccccc3s2)CC1	3.0%
COCc1cc(=O)[nH]c(Nc2nc3ccccc3o2)n1	9.4%
COc1ccc(NC(=O)/C(C#N)=C/c2c(C)nn(-c3ccc(F)cc3)c2Cl)cc1Cl	-0.1%
O=C1CC(c2ccc(F)cc2)c2c(n3c(nc4ccccc43)[nH]c2=O)N1 (configuration not stated)	-9.0%
O=C(NNC(=O)c1ccncc1)Nc1ccc([N+](=O)[O-])cc1	7.8%
CCN(CC)C(=O)C1CCN(S(=O)(=O)c2ccc3oc4ccccc4c3c2)CC1	-5.7%
O=C(Nc1nc(-c2ccncc2)cs1)c1ccc(F)cc1	1.6%
CCOC(=O)c1c(-c2ccccc2)oc2ccc(NS(=O)(=O)c3ccc(C)cc3C)cc12	-15.8%
CCNC(=O)NC(=O)CSc1ccc2ccccc2c1	?
COc1ccc(Br)cc1/C=C/c1ccc2cccc(O)c2n1	-7.1%
COc1ccccc1NC(=O)CSc1nnc(-c2ccoc2C)n1C	1.6%
COc1ccc(S(=O)(=O)N(C)CC(=O)Nc2ccccc2OC)cc1C	6.3%
COc1ccc(Nc2oc(-c3ccco3)nc2S(=O)(=O)c2ccc(F)cc2)cc1	-1.1%
COc1ccc(-n2c(Cc3cccn3C)nnc2SCC(=O)Nc2ccc(Cl)cc2)cc1	-19.8%
O=C(COC(=O)/C=C/c1ccccc1Cl)NC1CCCC1	6.1%
O=C(CNS(=O)(=O)c1ccc2c(c1)OCCCO2)N1CCN(c2ccc(F)cc2)CC1	-1.6%
O=C(Nc1ccc(S(=O)(=O)N2CCCC2)cc1)c1ccc(OCC2CCCO2)cc1 (configuration not stated)	7.0%
COc1cccc(Nc2ccc3cc(S(=O)(=O)N4CCC(C)CC4)ccc3n2)c1	7.9%
Cc1cccc(Nc2cc(C)nc(-n3nc(C)cc3C)n2)c1	8.2%
COc1ccc(C(=O)OCc2ccccc2F)cc1S(=O)(=O)N1CCCC1	-10.0%
O=C(c1snnc1-c1ccccc1)N1CCOCC1	-5.7%
CCOc1ccc(C(C)C)cc1S(=O)(=O)Nc1ccc(Cl)cn1	-7.0%
Cc1ccc2nc3c(c(Nc4cccc(O)c4)c2c1)CCC3	-2.6%
Cc1ccc2oc(C(=O)NCc3ccc4c(c3)OCO4)c(C)c2c1	4.0%
O=c1c(-c2ccccc2)coc2c(CN3CCCCC3)c(O)ccc12	-14.1%
CCSc1ncccc1-c1nc2ccccc2[nH]1	-12.2%
COCc1c(C#N)c(NCCc2ccc(F)cc2)nc(C)c1[N+](=O)[O-]	-10.5%
CN(C)c1ccc(N=Nc2cccc3ccoc23)cc1	-14.2%
C/C(=N\Nc1cc(N2CCOCC2)nc(C)n1)c1cccc([N+](=O)[O-])c1	-15.4%
O=C(Nc1ccccc1[N+](=O)[O-])c1cncc(Br)c1	-20.9%
CCn1c(S(=O)(=O)O)nc2ccccc21	-12.4%
C=CCNC(=O)C1(S(=O)(=O)c2ccccc2)CC=CC1	-1.1%
COc1ccccc1-c1cccc([C@@H]2C[C@H]3[C@H](CON3C)CN2S(=O)(=O)c2ccccc2C)c1	-9.2%
CCOc1ncccc1C(=O)OC(C)C(=O)Nc1ccc(CC)cc1 (configuration not stated)	-10.6%
Cc1ccc(CSCCNC(=O)C2CCN(S(=O)(=O)Cc3ccccc3)CC2)cc1	17.6%
O=S(=O)(Nc1cccc(C(F)(F)F)c1)c1cnc[nH]1	1.9%
Cc1nn2c(=O)cc(CSCC(=O)Nc3ccccc3F)nc2s1	-6.3%
CC1CCN(C(=O)c2cccc(S(=O)(=O)N3CCCc4ccccc43)c2)CC1	5.8%
Cc1ccc(C)c(NC(=S)N2CCC(NC(=O)c3ccco3)CC2)c1	0.2%
Cc1nn(C(=O)C(C)N2C(=O)c3ccccc3C2=O)c(C)c1Br (configuration not stated)	-11.0%
NC(=O)c1cc(S(=O)(=O)NCc2cccs2)cs1	-2.6%
Cc1ccccc1C(=O)N1CCC(c2nc3ccccc3s2)CC1	1.8%
CN(Cc1ccccc1)C(=O)c1cccc(NC(=O)Cc2cccc(NC(=O)C3CCN(C(=O)c4ccccc4)CC3)c2)c1	9.4%
CC1CCCCC12NC(=O)N(CC(=O)Nc1ccc(OC(F)F)cc1)C2=O (configuration not stated)	2.2%
Cc1sc2nc(CSC(C)C(=O)Nc3ccc(C(N)=O)cc3)[nH]c(=O)c2c1C (configuration not stated)	-5.4%

(further entries)
structure	VDR inh
CN(C(=O)c1cccc(NC(=O)Cc2ccc(NC(=O)C3CCN(C(=O)CCc4ccccc4)CC3)cc2)c1)C1CCC1	2.5%
COc1ccc(OC)c(NC(=O)c2cnc(N3CCCCC3)c3ccccc23)c1	-0.5%
COc1ccc(-c2nc3ncccc3o2)cc1NC(=O)c1cccs1	-23.7%
Cc1csc2c(=O)sc(NC(=O)c3ccc(F)cc3Cl)nc12	-17.6%
O=C(C1CC2CCC1C2)N1CCN(Cc2ccc3c(c2)OCO3)CC1 (configuration not stated)	5.6%
c1ccc(CSc2snnc2-c2ccccc2)cc1	-0.5%
COc1cc(C(=O)Nc2nnc(C3=COCCO3)o2)cc(OC)c1OC	10.8%
CCC(=NOCc1ccccc1)C(=O)NNS(=O)(=O)c1ccc(C)cc1	-9.3%
Cn1cc(S(=O)(=O)N2CCCCCC2)cc1C(=O)N1CCN(c2ccc(F)cc2)CC1	16.3%
COc1ccc(C2=C(C)C(=O)N(Cc3ccc(C(=O)Nc4cccc(F)c4)cc3)S2(=O)=O)cc1	0.7%
COc1ccc(CN2CCSCC2)cc1C	-1.9%
C(=N\n1cnnc1)/c1ccc(N2CCOCC2)cc1	3.5%
O=C1CC(C(=O)Nc2ccccc2)N=C(N2CCCCC2)N1 (configuration not stated)	0.9%
COCC(=O)Nc1ccccc1NC(C)=O	1.2%
COc1cccc(CNC(=O)c2ccc3c(c2)N(Cc2ccc(F)cc2Cl)C(=O)c2ccccc2S3)c1	-15.5%
Cc1ccc2c(CC(=O)OCC(=O)N(CC(C)C)c3c(N)n(Cc4ccccc4)c(=O)[nH]c3=O)coc2c1	13.4%

Arranged by molecular weight (ascending): some entries from above.
structure	VDR inh
COCC(=O)Nc1ccccc1NC(C)=O	1.2%
C(=N\n1cnnc1)/c1ccc(N2CCOCC2)cc1	3.5%
O=C1CC(C(=O)Nc2ccccc2)N=C(N2CCCCC2)N1 (configuration not stated)	0.9%
CCC(=NOCc1ccccc1)C(=O)NNS(=O)(=O)c1ccc(C)cc1	-9.3%
Cn1cc(S(=O)(=O)N2CCCCCC2)cc1C(=O)N1CCN(c2ccc(F)cc2)CC1	16.3%
COc1ccc(C2=C(C)C(=O)N(Cc3ccc(C(=O)Nc4cccc(F)c4)cc3)S2(=O)=O)cc1	0.7%
COc1cccc(CNC(=O)c2ccc3c(c2)N(Cc2ccc(F)cc2Cl)C(=O)c2ccccc2S3)c1	-15.5%

(further entries)
structure	VDR inh
CCn1cnc2sc(-c3ccccc3)cc2c1=O	7.3%
O=C(CN1C(=O)COc2ccc(Cl)cc21)Nc1cccc(F)c1	8.5%
COC(=O)c1cc(Br)c(=O)n(CCC2=CCCCC2)c1	-3.4%
O=C(Nc1cccc(Cl)c1)Nc1ccc(Cl)cn1	9.2%
CCOC(=O)CSc1nccc(N(C)C)c1C#N	4.2%
CCOC(=O)C1=C(COC(=O)c2ccc(Cl)c(S(=O)(=O)N3CCOCC3)c2)NC(=O)NC1C (configuration not stated)	-5.7%
CCc1ccc(N2C(=O)CN(Cc3sccc3C)C2=S)cc1	-8.6%
CCOc1ccccc1C(=O)NC(C(=O)NCCc1ccccn1)C(C)C (configuration not stated)	-1.4%
